Calb FLC = C. albicans growth modulation with fluconazole; C. albicans CaCi-2 (fluconazole-resistant clinical isolate) + fluconazole, Alamar Blue growth, 48 h; AID 1979; growth inhibition, % (no concentration beside the values); 300,000 compounds, 0.57% hits;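 active = most replicates above 75%; inconclusive = exactly half above 75%; inactive = most below 75%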;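 note: all wells also contain fluconazole at 8 µg/ml as a sub-toxic cotreatment; 0% = median of DMSO wells and 100% = median of geldanamycin control wells; wells of about 8 µL received 7.5 nL stock; the first replicate is given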
LANA-H2B inh = blocks KSHV LANA binding to histone H2A/H2B | Q9QR71 | cell-free LANA-H2A/H2B peptide, fluorescence polarization | AID 2629 | inhibition, % (no concentration beside the values) | 320,000 compounds, 0.6% hits; in the data active = inhibition mostly above about 10%, no sharp cut-off; inactive = mostly below about 6.7%;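 note: stock transfer was 7.5 nL into about 10 µL; 0% = median of vehicle wells and 100% = median of positive control wells; one replicate is shown; the record names a cut of 25% in any replicate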
T cruzi inh = T. cruzi replication inhibition; T. cruzi beta-gal in NIH3T3, luminescence, 90 h; inhibition, % (no concentration beside the values); 300,000 compounds, 1.4% hits; AID 1885;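 active = mean inhibition across valid replicates above about 55%, limit read from the data; inconclusive = mean below that limit but half or more replicates reach it; inactive = mean below it, under half of replicates reach it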;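 note: signal also drops with host cell toxicity which is not excluded here; 0% = plate median of DMSO wells and 100% = zero luminescence signal; higher percent means less beta-gal luminescence so fewer parasites; stock transfer was 50 nL into about 50 µL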
AF4-AF9 inh = blocks AF4 peptide binding to human AF9; AID 651704; inhibition, % at 10 µM; P42568; AlphaScreen, biotin-AF4 peptide binding to FLAG-AF9; 350,000 compounds, 0.47% hits;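 active = every replicate reaching a set inhibition limit, whatever the replicate mean, cut at about 25% in these data; inconclusive = mean inhibition reaches that limit but some replicates miss it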;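 note: 0% = plate neutral control median and 100% = total signal loss; the record names both 10 and 1 µM as test concentration; the first replicate is given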
Target sequence (P42568 whole entry, looked up): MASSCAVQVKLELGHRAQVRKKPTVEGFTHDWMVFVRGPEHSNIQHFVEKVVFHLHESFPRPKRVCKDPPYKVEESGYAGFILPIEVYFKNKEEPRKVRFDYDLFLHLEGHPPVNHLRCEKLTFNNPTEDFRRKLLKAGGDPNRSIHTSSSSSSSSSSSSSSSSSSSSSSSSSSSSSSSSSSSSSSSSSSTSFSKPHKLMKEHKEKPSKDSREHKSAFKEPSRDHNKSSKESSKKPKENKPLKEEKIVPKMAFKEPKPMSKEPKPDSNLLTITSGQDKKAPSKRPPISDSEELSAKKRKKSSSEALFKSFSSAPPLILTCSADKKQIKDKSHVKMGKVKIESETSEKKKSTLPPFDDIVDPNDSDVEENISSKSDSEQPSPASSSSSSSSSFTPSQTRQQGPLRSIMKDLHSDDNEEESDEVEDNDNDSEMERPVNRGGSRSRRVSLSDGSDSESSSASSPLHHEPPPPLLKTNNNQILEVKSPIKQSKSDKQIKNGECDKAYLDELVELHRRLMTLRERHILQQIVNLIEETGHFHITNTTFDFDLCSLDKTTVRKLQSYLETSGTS
Vif A3G = HIV-1 Vif–A3G interaction blockers – biochemical, TR-FRET, GST-Vif 1-94, biotin-A3G peptide, dose response retest, primary screen (AID 1117319); inhibition, %; hits with a dose series show IC50 in µM; 260,000 compounds, 0.57% hits; TR-FRET GST-Vif / biotin-A3G peptide binding; higher % means a stronger effect; test concentration not given here; strong numbers were not always called active;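 active = above the screen mean plus three standard deviations and confirmed in dose response; inconclusive = results disagree or hit not tested in dose response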;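 note: Vif residues 1-94 fused to GST binding biotinylated APOBEC3G peptide 110-148; 0% = full assay without inhibitor and 100% = GST in place of GST-Vif; retest series ran down from 100 µM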
RanGTP-Impb inh = disruptors of Ran-importin-beta complex formation – biochemical, FRET, CFP-Ran, YFP-importin-beta, homogeneous, primary screen; AID 2216; inhibition, % (concentration not given with the values); cell-free CFP-Ran/YFP-importin-beta FRET ratio; 300,000 compounds, 1.1% hits;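 active = most replicates above 15%; inconclusive = exactly half above 15%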;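 note: 0% = DMSO wells and 100% = Ran loaded with GDP instead of GTP; wells of about 40 µL received 100 nL stock; the first replicate is given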
Beta apoptosis = blocks beta cell apoptosis | INS-1E cytokine-induced death, ATP luminescence, 48 h; percent of positive-control rescue, neutral wells zero | protection from apoptosis, % (concentration not given with the values) | 300,000 compounds, 0.8% hits;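 active = all replicates at 75% or more, or half of them and the mean; inconclusive = half reach 75% but not the mean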;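 note: 0% = cytokine-treated negative control wells and 100% = positive control rescue; higher means more ATP so stronger rescue from cytokine killing; wells of about 40 µL received 100 nL stock; the first replicate is given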
A1 inh = inhibitors of the anti-apoptotic protein A1, read as caspase activation. 330,000 compounds, 0.066% hits. MEF A1-2A-BIM cells, Caspase-Glo 3/7 luminescence, 3 h; percent of clofoctol response, vehicle zero. caspase activation, % (concentration not given with the values). AID 2462;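 active = over half of replicate activation scores above 10%, or exactly half above 10 with the replicate mean above 10; inconclusive = replicate mean below 10 yet half the replicates above 10; inactive = over half of replicates below 10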;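 note: wells of about 30 µL received 50 nL stock; many hits fall short of the cut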
Numbers without * were called inactive.

A first look:
What do the screens show for `COc1ccc(N2CCN(c3ccc(N4C(=O)COCC4=O)cc3[N+](=O)[O-])CC2)cc1`?
Calb FLC: -26; LANA-H2B inh: 12; T cruzi inh: -24; RanGTP-Impb inh: -0.5; Beta apoptosis: 1; A1 inh: 0.0

How did CCCOc1ccc(CSc2nc3ccccc3[nH]2)cc1 do in these assays?
Calb FLC: 15; LANA-H2B inh: 1.6; T cruzi inh: -21; Vif A3G: 4%; RanGTP-Impb inh: 0.7; Beta apoptosis: 112*; A1 inh: -5.8

The whole of this part (from the top)
What do the screens show for `COc1ccc(N2CCN(c3ccc(N4C(=O)COCC4=O)cc3[N+](=O)[O-])CC2)cc1`?
Calb FLC: -26; LANA-H2B inh: 12; T cruzi inh: -24; RanGTP-Impb inh: -0.5; Beta apoptosis: 1; A1 inh: 0.0

How did CCCOc1ccc(CSc2nc3ccccc3[nH]2)cc1 do in these assays?
Calb FLC: 15; LANA-H2B inh: 1.6; T cruzi inh: -21; Vif A3G: 4%; RanGTP-Impb inh: 0.7; Beta apoptosis: 112*; A1 inh: -5.8

Results for O=S(=O)(CCN1CCSCC1)c1ccccc1 ?
Calb FLC: 4; LANA-H2B inh: 2.5; T cruzi inh: -21; AF4-AF9 inh: 6.5; Vif A3G: -6%; RanGTP-Impb inh: 3.3; Beta apoptosis: 2; A1 inh: 0.1

How did Cc1c(NC(=O)CSc2ncnc3c2cnn3-c2ccccc2)c(=O)n(-c2ccccc2)n1C do in these assays?
LANA-H2B inh: -3.9; T cruzi inh: -2; AF4-AF9 inh: -66; Vif A3G: -4%; RanGTP-Impb inh: -2.0; Beta apoptosis: -1; A1 inh: -4.2

Results for CN(CC(=O)Nc1cc(Cl)ccc1Cl)C1CCS(=O)(=O)C1 (stereo not drawn) ?
LANA-H2B inh: 3.2; AF4-AF9 inh: 2.1; Vif A3G: 0%; Beta apoptosis: 0; A1 inh: -0.5

How did O=C(N/N=C/c1cccs1)c1cccnc1 do in these assays?
Calb FLC: 1; LANA-H2B inh: -0.4; T cruzi inh: 0; AF4-AF9 inh: 0.4; Vif A3G: -6%; RanGTP-Impb inh: -2.4; Beta apoptosis: -8; A1 inh: -0.6

How did Cc1ccc(C2N(c3cccc(Cl)c3)C(=O)N3CCCN23)cc1 (stereo not drawn) do in these assays?
Calb FLC: 7; LANA-H2B inh: 1.6; T cruzi inh: 0; AF4-AF9 inh: 9.2; RanGTP-Impb inh: 4.3; Beta apoptosis: -3; A1 inh: -0.2

Results for COc1ccccc1N(CC(=O)NC1CCCC1)C(=O)C1(C)CC(=O)N=C2C=CC(C)=CN21 (stereo not drawn) ?
Calb FLC: -5; LANA-H2B inh: -6.9; T cruzi inh: -3; AF4-AF9 inh: -3.0; RanGTP-Impb inh: 1.5; Beta apoptosis: 2; A1 inh: 0.1

How did CCOC(=O)c1ccccc1NC(=O)c1ccc2c(SCC(=O)O)c3c(nc2c1)CCCC3 do in these assays?
Calb FLC: 33; LANA-H2B inh: -2.0; T cruzi inh: 1; AF4-AF9 inh: 0.1; RanGTP-Impb inh: 5.2; Beta apoptosis: 3; A1 inh: 0.1

How did O=C(NNc1nc(-c2ccc(Br)cc2)cs1)c1ccco1 do in these assays?
Calb FLC: -9; LANA-H2B inh: -0.9; T cruzi inh: 10; AF4-AF9 inh: 11; Vif A3G: 28%; RanGTP-Impb inh: 2.7; Beta apoptosis: 7; A1 inh: 0.2

How did Cc1onc(-c2ccccc2Cl)c1C(=O)O/N=C(\N)c1ccccc1 do in these assays?
Calb FLC: -4; LANA-H2B inh: 1.5; T cruzi inh: 59*; AF4-AF9 inh: -2.8; Vif A3G: -3%; RanGTP-Impb inh: 2.9; Beta apoptosis: 5; A1 inh: 0.0

How did C[C@H]1CCC(=O)N([C@H](CSc2ccccc2)Cc2ccccc2)CC1 do in these assays?
Calb FLC: 1; LANA-H2B inh: -0.9; T cruzi inh: 21; AF4-AF9 inh: -0.3; RanGTP-Impb inh: 5.0; Beta apoptosis: -11; A1 inh: -0.6

How did Cc1ccc2[nH]c3c(c2c1)CN(C(=O)CN1CCN(c2ccccc2F)CC1)CC3 do in these assays?
Calb FLC: 15; T cruzi inh: 17; Vif A3G: 3%; RanGTP-Impb inh: -34

How did Cc1c2cnn(CC(=O)NCCCN3CCCCC3)c(=O)c2c(C)n1Cc1ccccc1 do in these assays?
Calb FLC: -4; LANA-H2B inh: -1.1; T cruzi inh: -4; AF4-AF9 inh: 8.1; RanGTP-Impb inh: 0.7; Beta apoptosis: 4; A1 inh: 0.0

What do the screens show for `CC(=O)Nc1ccc(C)c([N+](=O)[O-])c1`?
Calb FLC: -8; LANA-H2B inh: 3.5; T cruzi inh: -22; AF4-AF9 inh: -0.7; Vif A3G: -8%; RanGTP-Impb inh: 2.6; Beta apoptosis: 3; A1 inh: 1.0

What do the screens show for `Clc1ccc(CSc2nnc(-c3ccc4c(c3)OCO4)o2)cc1`?
Calb FLC: 2; LANA-H2B inh: -1.4; T cruzi inh: 15; Vif A3G: -5%; RanGTP-Impb inh: 1.5; Beta apoptosis: -5; A1 inh: 0.6

How did O=Cc1c(-c2ccccc2)cc2oc3ccccc3cc1-2 do in these assays?
Calb FLC: -4; LANA-H2B inh: -0.6; T cruzi inh: 10; Vif A3G: 1%; RanGTP-Impb inh: 2.8; Beta apoptosis: 5; A1 inh: -3.8

Results for CCOC(=O)c1ccc(NC(=O)c2ccccc2)cc1 ?
Calb FLC: -13; LANA-H2B inh: -5.1; T cruzi inh: 0; AF4-AF9 inh: 1.3; Vif A3G: 25%; RanGTP-Impb inh: -5.2; Beta apoptosis: 0; A1 inh: -4.7

Results for Cc1ccc(SC(C)C(=O)Nc2ccc(S(=O)(=O)N3CCOCC3)cc2)cc1 (stereo not drawn) ?
Calb FLC: -26; LANA-H2B inh: 2.0; T cruzi inh: 9; Vif A3G: inconclusive; RanGTP-Impb inh: -18; Beta apoptosis: 3; A1 inh: -0.2

Results for CCOc1ccc(C(C(=O)NC2CCCC2)N(C(=O)c2snc(C(N)=O)c2N)c2cccc(O)c2)cc1 (stereo not drawn) ?
Calb FLC: 1; LANA-H2B inh: 1.0; T cruzi inh: 5; AF4-AF9 inh: 1.7; RanGTP-Impb inh: 0.1; Beta apoptosis: -3; A1 inh: 0.0

Results for O=C(/C=C/Nc1ccc(OC(F)(F)F)cc1)C(F)(F)F ?
Calb FLC: 2; LANA-H2B inh: -2.3; T cruzi inh: -1; Vif A3G: 0%; RanGTP-Impb inh: -2.9; A1 inh: -1.1

How did CCOC(=O)c1oc2ccc(S(=O)(=O)n3nc(-c4ccc(OC)cc4)cc3N)cc2c1C do in these assays?
Calb FLC: 9; LANA-H2B inh: -3.9; T cruzi inh: 5; AF4-AF9 inh: -1.8; Vif A3G: -2%; RanGTP-Impb inh: 3.5; A1 inh: 0.0

How did O=C(COC(=O)c1cc(NS(=O)(=O)c2cccs2)ccc1O)Nc1ccc(F)c(F)c1F do in these assays?
Calb FLC: 2; LANA-H2B inh: 1.8; T cruzi inh: -10; AF4-AF9 inh: -0.4; Vif A3G: 4%; RanGTP-Impb inh: -1.6; Beta apoptosis: -4; A1 inh: -0.1

Results for CC(C)=CC(=O)OCC(=O)Nc1cc([N+](=O)[O-])ccc1F ?
Calb FLC: -7; LANA-H2B inh: 1.8; T cruzi inh: 6; Vif A3G: inconclusive; RanGTP-Impb inh: 3.7; Beta apoptosis: -6; A1 inh: 0.2

What do the screens show for `Cc1c(C(=O)N/N=C/c2cccnc2)sc(=S)n1C`?
Calb FLC: 1; LANA-H2B inh: 7.8; T cruzi inh: 11; Vif A3G: -4%; RanGTP-Impb inh: 0.9; Beta apoptosis: -9; A1 inh: 1.2

Results for Clc1ccc(SCc2cn3ccsc3n2)cc1 ?
Calb FLC: -5; LANA-H2B inh: 2.3; T cruzi inh: 0; Vif A3G: 2%; RanGTP-Impb inh: 2.0; Beta apoptosis: -10; A1 inh: -2.6

Results for CC(C)NC(=O)CN1CCN(C(=O)c2ccc3oc(CCCc4ccccc4)nc3c2)CC1 ?
Calb FLC: 24; LANA-H2B inh: -1.7; T cruzi inh: -6; AF4-AF9 inh: 1.3; RanGTP-Impb inh: 4.0; Beta apoptosis: 4; A1 inh: 1.2

Results for CCS(=O)(=O)N1CCC(C(=O)NCc2ccc(OC)cc2OC)CC1 ?
Calb FLC: -20; LANA-H2B inh: 0.3; T cruzi inh: -13; AF4-AF9 inh: -2.0; Vif A3G: -6%; RanGTP-Impb inh: 2.1; Beta apoptosis: 5; A1 inh: 0.5

What do the screens show for `CCCN(CC(=O)Nc1ccc(C(N)=O)cc1)CC(=O)Nc1ccccc1C`?
Calb FLC: 17; LANA-H2B inh: -0.4; T cruzi inh: -8; AF4-AF9 inh: 0.0; Vif A3G: -8%; RanGTP-Impb inh: 0.5; Beta apoptosis: -6; A1 inh: 1.6

How did O=C(NCc1cccc(F)c1)c1noc2c1CCCC2 do in these assays?
Calb FLC: 3; LANA-H2B inh: -2.1; T cruzi inh: 6; AF4-AF9 inh: -7.5; Vif A3G: 3%; RanGTP-Impb inh: 2.4; Beta apoptosis: -4; A1 inh: 0.2

What do the screens show for `COc1ccc(S(N)(=O)=O)cc1-c1nnc2c3ccccc3c(C)nn12`?
Calb FLC: 12; LANA-H2B inh: -8.1; T cruzi inh: 1; AF4-AF9 inh: -6.0; RanGTP-Impb inh: -0.6; Beta apoptosis: 5; A1 inh: 0.1

How did FC(F)(F)c1cc(-c2ccco2)nc(NCc2cccnc2)n1 do in these assays?
Calb FLC: 36; LANA-H2B inh: -4.7; T cruzi inh: 6; Vif A3G: 42µM*; RanGTP-Impb inh: -3.6; Beta apoptosis: -2; A1 inh: -0.1

What do the screens show for `Cn1c(C(C#N)C(=O)c2ccco2)nc2ccccc21` (stereo not drawn)?
Calb FLC: 24; LANA-H2B inh: 4.0; T cruzi inh: -8; Vif A3G: 6%; RanGTP-Impb inh: 4.4; Beta apoptosis: 1; A1 inh: -0.5

What do the screens show for `CC(Cc1ccccc1)NC(=O)c1cc([N+](=O)[O-])ccc1Cl` (stereo not drawn)?
Calb FLC: -8; LANA-H2B inh: 2.7; T cruzi inh: 6; AF4-AF9 inh: -1.7; RanGTP-Impb inh: 2.1; Beta apoptosis: 5; A1 inh: -0.2

How did CCN(CC)C(=O)CP(=O)(c1ccccc1)c1ccccc1 do in these assays?
Calb FLC: -7; LANA-H2B inh: -1.3; T cruzi inh: 0; Vif A3G: 10%; RanGTP-Impb inh: -4.6; Beta apoptosis: -1; A1 inh: 0.5

Results for Clc1ccc(Sc2cc(N3CCOCC3)nc(-c3ccccc3)n2)cc1 ?
Calb FLC: -10; LANA-H2B inh: -0.6; T cruzi inh: 15; Vif A3G: 66%; RanGTP-Impb inh: -0.1; Beta apoptosis: -1; A1 inh: 0.2

How did CC(C)n1c(SCC(N)=O)nc2c1c(=O)[nH]c(=O)n2C do in these assays?
Calb FLC: 10; T cruzi inh: 6; Vif A3G: inconclusive; RanGTP-Impb inh: -1.5
